Screening results deposited in PubChem BioAssay by several laboratories.
Mtb hypoxia rep: Mtb hypoxia fluorescent reporter inhibition; M. tuberculosis hypoxia-regulated fluorescent reporter, fluorescence; fluorescence inhibition, % (test concentration not listed); AID 1159583; actives 0.1% (n = 300,000);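 active means 35 to 45% if threefold the growth effect, above 45% if 1.5-fold the growth effect; inactive means the rest, general growth blockers included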;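 further: wells of about 50 µL received 100 nL stock; 0% = vehicle wells and 100% = reference inhibitor wells; whole bacteria with a GFP reporter of the hypoxia response; strong numbers were not always called active; many hits fall short of the cut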
Autofluor counter: flagged as autofluorescent in microsphere protease counterscreen; compound autofluorescence counterscreen, microsphere flow cytometry; hits give high values; AID 624483; actives 3.1% (n = 360,000); fluorescence intensity (no concentration beside the values);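 active means at least 3 SD above the mean of all compounds, about 16000 in these data; inconclusive means too few beads counted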;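 further: 100 nL of 1 mM stock went into each well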
RN4220 kill: S. aureus RN4220 growth inhibition. actives 0.33% (n = 330,000). inhibition, % (no concentration beside the values). OD600, 16 h;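 active means z-score of -3 or lower and OD600 up to 0.18 on both plates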;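 further: plate controls were untreated cells for no effect and reference antibiotic for full effect; stock transfer was 100 nL into about 80 µL; one replicate is shown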
PrP 5UTR inh: suppresses PrP 5' UTR mRNA reporter expression; actives 0.35% (n = 340,000); inhibition, % (test concentration not listed); cell-based PrP 5' UTR mRNA reporter, plate reader;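 active means every replicate at 50% or more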;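 further: 0 = median of the neutral control wells; tested in H4 reporter cells; numbers are from one replicate; inactives centre near -14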
BJeLR lethal: BJeLR cell viability loss; BJeLR (HRASV12) viability, CellTiter-Glo ATP luminescence, 48 h; reference of the scale not given here; inhibition, % (no concentration beside the values); actives 0.17% (n = 300,000); AID 1554;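 active means replicate mean above 50%; inconclusive means above 50% but judged a plate artefact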;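 further: 50 nL library stock added to about 25 µL; numbers are from one replicate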
Sa ugtP lethal: kills S. aureus RN4220 lacking UgtP; S. aureus RN4220 ugtP deletion, OD600 growth, 16 h; some inactives read as strong as hits; growth inhibition, % (no concentration beside the values); AID 1259309; actives 0.54% (n = 330,000);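 active means z-score under -3 and OD600 up to 0.15 on both plates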;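 further: plate controls were untreated wells for no effect and antibiotic for full effect; wells of about 80 µL received 100 nL stock; the first replicate is given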
Mtb hypoxia rep growth: further read-out of Mtb hypoxia rep, marked with its call; growth inhibition, %; measured here: M. tuberculosis growth (absorbance);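 0% = vehicle and 100% = reference antibiotic; read after six days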
* = called active by the depositor; ? = inconclusive; · = no result given.

SMILES | Mtb hypoxia rep | Mtb hypoxia rep growth | Autofluor counter | RN4220 kill | PrP 5UTR inh | BJeLR lethal | Sa ugtP lethal
COC(=O)c1ccc(Nc2c([N+](=O)[O-])ccc3nonc23)cc1 | -8 | 2 | 3480 | 0.4 | -24 | -9 | 6
O=P1(NCCCl)OCCCN1CCCl (centres undefined) | 3 | 2 | 5478 | 7.4 | -17 | · | -4
c1ccc(CNCc2ccco2)cc1 | 20 | 5 | · | 3.2 | -29 | 3 | 3
Cc1cccc(NC(=O)c2ccc3c(c2)CCN3S(C)(=O)=O)c1 | 2 | -1 | 3046 | 4.0 | -32 | 1 | 6
CCNC(=O)/C(C#N)=C/c1c(N2CCN(c3ccccc3)CC2)nc2c(C)cccn2c1=O | 12 | -1 | 3341 | -3.5 | -16 | 5 | -6
C/C=C/c1ccc(OCC(=O)N(CCOC)c2c(N)n(CCCC)c(=O)[nH]c2=O)c(OC)c1 | 8 | 5 | · | 3.9 | -14 | 3 | 1
COc1cc(/C=C/C(=O)O)ccc1OCc1ccccc1C#N | -1 | 0 | 1975 | 7.3 | -7 | 10 | 11
Cc1ccc(CN2C(=O)c3ccccc3NC2c2ccccn2)cc1 (centres undefined) | 9 | 7 | 5493 | 2.8 | -20 | -2 | 6
Cc1ccc2nc(-c3ccccc3)cc(C(=O)N3CCN(c4ccccc4O)CC3)c2c1 | 5 | 10 | 6667 | -2.2 | -17 | 3 | -9
O=C(CS(=O)c1ccc(C(F)(F)F)cc1[N+](=O)[O-])Oc1ccc(Cl)cc1 (centres undefined) | 6 | -2 | 22500* | 3.5 | -20 | -1 | 3
CCCCn1c(=O)c(C=Nc2cccnc2Cl)c(O)n(CCCCl)c1=O | 10 | -5 | 3236 | 3.2 | -15 | -4 | -2
CN1C2CCC1CC(N(CCc1ccccc1)C(=O)c1ccc(Cl)cc1)C2 (centres undefined) | 1 | 5 | 3828 | 0.7 | -7 | 1 | 0
CC(C)CCNC(=O)NC(=O)CSc1nnc(COc2ccccc2Cl)o1 | -9 | -2 | ? | 2.4 | 5 | -2 | -16
CSc1nc2ccc(Cl)cc2[nH]1 | -2 | 0 | 20323* | 9.3 | -28 | 2 | 4
Cc1ccc(NC(=O)CSc2ncn(-c3ccccc3)n2)cc1C | 4 | 7 | 15505 | 22 | 1 | 7 | 9
CCc1cc(C(=O)N2CCN(C(=O)c3ccccc3)CC2)sc1C | 4 | 8 | 5916 | 1.7 | -22 | · | 2
CN1/C(=C\C(=O)COC(=O)CNC(=O)c2ccccc2F)C(C)(C)c2ccccc21 | 11 | 11 | 2092 | 4.3 | -4 | 16 | 0
Cc1cccc(NC(=S)N(CCCN2CCOCC2)Cc2ccco2)c1 | 1 | 0 | 3952 | 4.3 | -12 | -6 | 7
CS(=O)(=O)c1ccc(Cl)c(NC(=O)C2CC(=O)N(Cc3ccccc3)C2)c1 (centres undefined) | -2 | -1 | 3855 | -1.2 | -6 | 9 | -10
O=C1[C@@H]2C(c3cccnc3)=NO[C@@H]2C(=O)N1c1ccc(Cl)cc1Cl | 2 | 3 | 5275 | 8.0 | -14 | -3 | 1
COC(=O)C(CCCCNC(=O)c1ccc([N+](=O)[O-])cc1)NC(=O)c1ccc([N+](=O)[O-])cc1 (centres undefined) | -13 | 0 | 2425 | 2.7 | -38 | -1 | 15
O=C(CC1CC2CCC1C2)Nc1nc(-c2ccccn2)cs1 (centres undefined) | 12 | 10 | 3904 | 6.8 | -37 | 3 | 1
CCN(CC)CCCN(Cc1cc2cc3c(cc2[nH]c1=O)OCO3)C(=S)NCCOC | -9 | -1 | 3796 | 2.3 | 10 | -7 | 1
O=C(NCc1ccccc1)C1=C[C@@H](c2ccc(C(F)(F)F)cc2)C[C@@H](OCCCCO)O1 | · | · | 4271 | · | -4 | 7 | ·
Oc1ccc(Br)cc1-c1nc2cnccn2c1NC1CCCC1 | 23 | 18 | 4273 | -4.1 | -6 | 3 | -20
N#CNC(=Nc1cccc(F)c1)SCc1cccc(F)c1 | -2 | -8 | 2107 | 4.0 | -10 | 1 | -6
Cc1cc(C)n(CC(=O)c2cccc([N+](=O)[O-])c2)n1 | 11 | -5 | 4139 | 4.4 | -47 | 6 | 3
CCCc1oc(C(=O)O)cc1CN | -2 | 8 | 4079 | -2.1 | 4 | 5 | 0
Cc1nc(SCC(=O)Nc2ccc3[nH]c(=O)[nH]c3c2)nc(C)c1C | 3 | -2 | 2892 | 0.0 | -24 | · | 0
O=C(COc1ccc(S(=O)(=O)N2CCCC2)cc1)Nc1ccc(F)cc1 | 10 | 4 | 3933 | -0.5 | -2 | 4 | 13

Looked up by structure from above (two):
SMILES | Mtb hypoxia rep | Mtb hypoxia rep growth | Autofluor counter | RN4220 kill | PrP 5UTR inh | BJeLR lethal | Sa ugtP lethal
CSc1nc2ccc(Cl)cc2[nH]1 | -2 | 0 | 20323* | 9.3 | -28 | 2 | 4
CN1C2CCC1CC(N(CCc1ccccc1)C(=O)c1ccc(Cl)cc1)C2 (centres undefined) | 1 | 5 | 3828 | 0.7 | -7 | 1 | 0

(listing goes on)
SMILES | Mtb hypoxia rep | Mtb hypoxia rep growth | Autofluor counter | RN4220 kill | PrP 5UTR inh | BJeLR lethal | Sa ugtP lethal
COC(=O)c1ccc(OCC(O)CN2CCN(CC(O)COc3ccc(C(=O)OC)cc3)CC2)cc1 (centres undefined) | -4 | -8 | 3533 | -0.2 | -6 | 14 | 3
CC(O/N=C/c1ccccc1OC(F)F)C(=O)Nc1cccc(S(=O)(=O)N2CCOCC2)c1 (centres undefined) | · | · | 2467 | · | -15 | 2 | ·
Cc1cc(C)cc(NS(=O)(=O)c2cc(Br)cnc2N)c1 | 3 | 1 | 4522 | 2.9 | -74 | 0 | 13
Cc1ccccc1NC(=O)CCS(=O)(=O)c1ccc(Br)cc1 | -4 | -1 | 3741 | 2.5 | -12 | 2 | 8
COc1ccc(N2CCN(C(=O)C(=O)c3cn(CC(=O)N4CCCCCC4)c4ccccc34)CC2)cc1 | 6 | -3 | 6981 | -0.7 | -24 | 9 | 13
CN(Cc1cccs1)C(=O)c1cc(S(=O)(=O)N2CCOCC2)ccc1N1CCCC1 | 8 | 4 | 6428 | 1.4 | -6 | · | 5
CCCN(Cc1nnc(-c2cccs2)o1)C(=O)c1cc(S(=O)(=O)N2CCOCC2)ccc1C | 4 | -14 | 4471 | 2.7 | -8 | · | 3
Cc1nn(C)c2ncc(C(N)=O)c(Oc3cccnc3)c12 | 5 | 1 | 5881 | 3.3 | -46 | 0 | 2
CC1CCCN(C(=S)SCC(=O)c2cc(Br)cc(Br)c2O)C1 (centres undefined) | 3 | 10 | 4657 | -0.9 | -17 | 5 | 6
O=C(O)/C=C/c1ccc(S(=O)(=O)N2CCN(CCN3C(=O)C4C5C=CC(C5)C4C3=O)CC2)cc1 (centres undefined) | -3 | 1 | 4106 | 2.3 | -46 | -11 | 3
Cc1cccc(C)c1Nc1nnc(SCC(=O)Nc2sccc2C#N)s1 | -17 | 4 | 1956 | 3.3 | 2 | -2 | -5
Cc1ccc(C)c(NC(=O)CN(C)C(=O)c2cccc(S(=O)(=O)N(C)C)c2)c1 | -4 | -3 | 2222 | -2.1 | -18 | 2 | -3
Cc1ccc(SCC(=O)Nc2cc(S(=O)(=O)N3CCCCC3)ccc2C)cc1 | 8 | 9 | 3656 | 3.0 | -12 | · | 0
COc1ccc(CC(=O)NCC2CCCN(Cc3ccc(OC(F)(F)F)cc3)C2)cc1 (centres undefined) | · | · | 4020 | · | -34 | -1 | ·
O=C(CSc1nnc(C2CC2)n1CC1CCCO1)Nc1cccc(Cl)c1 (centres undefined) | 13 | 15 | 3740 | 3.5 | -23 | 1 | 7
O=C(NCC1CCN(Cc2ccccc2F)CC1)Nc1ccccc1F | -7 | -5 | 3928 | -1.7 | -13 | 0 | -3
Cc1ccc(NC(=O)c2cccc(S(=O)(=O)N3CCCC3)c2)nc1 | 2 | 10 | 5584 | -0.3 | -35 | 2 | 3
CC(C)c1ccc(OCC(=O)NC2CC(C)(C)NC(C)(C)C2)c(Br)c1 | 15 | 5 | 6472 | 2.8 | -28 | 4 | 1
Cc1cc(C(=O)Nc2cc(C)n(Cc3ccc(Cl)cc3)n2)no1 | 2 | 6 | 10012 | 3.9 | -13 | 5 | -17
Cn1cnnc1SCC(=O)c1ccco1 | 5 | -2 | 12932 | 2.7 | -33 | -2 | 0
CCOC(=O)c1c(C)[nH]c(C(=O)NCc2ccco2)c1C | -4 | -1 | · | -2.7 | · | 5 | -3
COc1cc(C(=O)Oc2cccc(C=O)c2)cc(OC)c1OC | 1 | -2 | 7788 | 5.0 | -17 | 5 | -2
COC(=O)c1[nH]nc2c1C(=O)N(C1CCCCC1)C2=O | · | · | 4875 | 6.2 | 1 | 9 | -19
O=C(NN=Cc1ccc([N+](=O)[O-])cc1)c1cc(C2CC2)[nH]n1 | 12 | 1 | · | 2.7 | · | · | -1
NC(=S)NN=Cc1ccccc1[N+](=O)[O-] | -4 | -1 | · | 3.4 | · | · | 3
CC1CC(C)CN(CCCNC(=O)COc2cc(=O)n(C)c3ccccc23)C1 (centres undefined) | -11 | -4 | 6160 | -0.9 | 0 | 5 | -2
COc1ccc(/C=N/N=C2/NC(=O)C(c3ccccc3)S2)c(OC)c1 (centres undefined) | · | · | 3838 | · | -6 | -7 | ·
O=S(=O)(c1cc(Cl)ccc1Br)N1CCOCC1 | 14 | 14 | 12495 | 2.7 | -20 | -2 | -5
COCCCC1CCN(Cc2nc(Cc3ccccc3Cl)no2)CC1 | 16 | 4 | 2222 | 4.8 | -21 | -7 | 13
CNC(=O)C1OC(n2cnc3c(NCc4cccc(I)c4)nc(Cl)nc32)C(O)C1O (centres undefined) | 4 | 3 | · | 7.7 | · | · | -17
COc1ccc(-c2nnn(CC(=O)c3c[nH]c4ccccc34)n2)cc1OC | 14 | 5 | 11104 | 11 | -14 | 4 | -18
CN(C)N1C(=O)CC(C)(c2ccc([N+](=O)[O-])cc2)C1=O (centres undefined) | 14 | 7 | 3535 | 7.3 | -9 | 1 | 5
CCC/C=N/Nc1nc2ccccc2s1 | · | · | 2396 | · | -95 | 3 | ·
Cc1cc(C=C2SC(=S)NC2=O)c(C)[nH]1 | 14 | 5 | · | 13 | · | · | 0
Cc1ccc(-c2nnc(Sc3nc4ccccc4o3)c3ccccc23)cc1 | 2 | -3 | 10468 | -6.0 | -42 | -2 | 57
N#Cc1ccc(N2Cc3ccccc3C2=NC(=O)c2cccs2)cc1 | · | · | 10294 | · | -49 | -17 | ·
COc1cccc(/C=N/NC(=O)C(=O)N2CCCC2)c1OC | · | · | 2570 | · | -18 | 5 | ·
CCOc1cc2[nH]c(=S)n(C(C)C)c(=O)c2cc1OCC | 5 | 10 | 21566* | -0.4 | -24 | -4 | 24
COc1ccc(C(C)=NO)cc1OC | 5 | 2 | · | 4.9 | · | · | 3

Molecules listed so far that contain an aryl thioether with sulfur outside any ring:
SMILES | Mtb hypoxia rep | Mtb hypoxia rep growth | Autofluor counter | RN4220 kill | PrP 5UTR inh | BJeLR lethal | Sa ugtP lethal
CC(C)CCNC(=O)NC(=O)CSc1nnc(COc2ccccc2Cl)o1 | -9 | -2 | ? | 2.4 | 5 | -2 | -16
CSc1nc2ccc(Cl)cc2[nH]1 | -2 | 0 | 20323* | 9.3 | -28 | 2 | 4
Cc1ccc(NC(=O)CSc2ncn(-c3ccccc3)n2)cc1C | 4 | 7 | 15505 | 22 | 1 | 7 | 9
Cc1nc(SCC(=O)Nc2ccc3[nH]c(=O)[nH]c3c2)nc(C)c1C | 3 | -2 | 2892 | 0.0 | -24 | · | 0
Cc1cccc(C)c1Nc1nnc(SCC(=O)Nc2sccc2C#N)s1 | -17 | 4 | 1956 | 3.3 | 2 | -2 | -5
Cc1ccc(SCC(=O)Nc2cc(S(=O)(=O)N3CCCCC3)ccc2C)cc1 | 8 | 9 | 3656 | 3.0 | -12 | · | 0
O=C(CSc1nnc(C2CC2)n1CC1CCCO1)Nc1cccc(Cl)c1 (centres undefined) | 13 | 15 | 3740 | 3.5 | -23 | 1 | 7
Cn1cnnc1SCC(=O)c1ccco1 | 5 | -2 | 12932 | 2.7 | -33 | -2 | 0
Cc1ccc(-c2nnc(Sc3nc4ccccc4o3)c3ccccc23)cc1 | 2 | -3 | 10468 | -6.0 | -42 | -2 | 57
